Vif TR-FRET – inhibitors of Vif binding to APOBEC3G peptide, primary screen, biochemical, TR-FRET, GST-Vif 1-94, biotin-A3G peptide, dose response retest (AID 1117319); Virion infectivity factor (Human immunodeficiency virus type 1 group M subtype B (isolate …; TR-FRET GST-Vif / biotin-A3G peptide binding; higher % means a stronger effect; test concentration not given here; strong numbers were not always called active; one-dose inhibition, %; IC50 in µM for titrated hits; 260,000 compounds, 0.57% hits;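 active means above the screen mean plus three standard deviations and confirmed in dose response; inconclusive means results disagree or hit not tested in dose response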;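 further: Vif residues 1-94 fused to GST binding biotinylated APOBEC3G peptide 110-148; 0% = full assay without inhibitor and 100% = GST in place of GST-Vif; retest series ran down from 100 µM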
RanGTP-Impb inh – inhibitors of RanGTP-importin-beta interaction, primary screen, biochemical, FRET, CFP-Ran, YFP-importin-beta, homogeneous. Ran GTPase (GTP-bound) - importin-beta complex. 300,000 compounds, 1.1% hits. inhibition, % (test concentration not listed). cell-free CFP-Ran/YFP-importin-beta FRET ratio;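 active means most replicates above 15%; inconclusive means exactly half above 15%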;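 further: 0% = DMSO wells and 100% = Ran loaded with GDP instead of GTP; wells of about 40 µL received 100 nL stock; the first replicate is given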
Calb FLC – C. albicans growth inhibition with fluconazole, primary screen, CaCi-2 strain, Alamar Blue fluorescence; C. albicans CaCi-2 (fluconazole-resistant clinical isolate) + fluconazole, 48 h; growth inhibition, % (no concentration beside the values); 300,000 compounds, 0.57% hits;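 active means most replicates above 75%; inconclusive means exactly half above 75%; inactive means most below 75%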;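 further: all wells also contain fluconazole at 8 µg/ml as a sub-toxic cotreatment; 0% = median of DMSO wells and 100% = median of geldanamycin control wells; wells of about 8 µL received 7.5 nL stock; the first replicate is given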
LANA-H2B inh – blockers of LANA interaction with H2A/H2B – biochemical, FP readout, HTS, primary screen | Protein LANA1 (Human herpesvirus 8 type P (isolate GK18)), Q9QR71 | cell-free LANA-H2A/H2B peptide, fluorescence polarization | inhibition, % (concentration not given with the values) | 320,000 compounds, 0.6% hits | AID 2629, 2010; in the data active means inhibition mostly above about 10%, no sharp cut-off; inactive means mostly below about 6.7%;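 further: stock transfer was 7.5 nL into about 10 µL; 0% = median of vehicle wells and 100% = median of positive control wells; one replicate is shown; the record names a cut of 25% in any replicate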
Target sequence (Q9QR71 whole entry, looked up): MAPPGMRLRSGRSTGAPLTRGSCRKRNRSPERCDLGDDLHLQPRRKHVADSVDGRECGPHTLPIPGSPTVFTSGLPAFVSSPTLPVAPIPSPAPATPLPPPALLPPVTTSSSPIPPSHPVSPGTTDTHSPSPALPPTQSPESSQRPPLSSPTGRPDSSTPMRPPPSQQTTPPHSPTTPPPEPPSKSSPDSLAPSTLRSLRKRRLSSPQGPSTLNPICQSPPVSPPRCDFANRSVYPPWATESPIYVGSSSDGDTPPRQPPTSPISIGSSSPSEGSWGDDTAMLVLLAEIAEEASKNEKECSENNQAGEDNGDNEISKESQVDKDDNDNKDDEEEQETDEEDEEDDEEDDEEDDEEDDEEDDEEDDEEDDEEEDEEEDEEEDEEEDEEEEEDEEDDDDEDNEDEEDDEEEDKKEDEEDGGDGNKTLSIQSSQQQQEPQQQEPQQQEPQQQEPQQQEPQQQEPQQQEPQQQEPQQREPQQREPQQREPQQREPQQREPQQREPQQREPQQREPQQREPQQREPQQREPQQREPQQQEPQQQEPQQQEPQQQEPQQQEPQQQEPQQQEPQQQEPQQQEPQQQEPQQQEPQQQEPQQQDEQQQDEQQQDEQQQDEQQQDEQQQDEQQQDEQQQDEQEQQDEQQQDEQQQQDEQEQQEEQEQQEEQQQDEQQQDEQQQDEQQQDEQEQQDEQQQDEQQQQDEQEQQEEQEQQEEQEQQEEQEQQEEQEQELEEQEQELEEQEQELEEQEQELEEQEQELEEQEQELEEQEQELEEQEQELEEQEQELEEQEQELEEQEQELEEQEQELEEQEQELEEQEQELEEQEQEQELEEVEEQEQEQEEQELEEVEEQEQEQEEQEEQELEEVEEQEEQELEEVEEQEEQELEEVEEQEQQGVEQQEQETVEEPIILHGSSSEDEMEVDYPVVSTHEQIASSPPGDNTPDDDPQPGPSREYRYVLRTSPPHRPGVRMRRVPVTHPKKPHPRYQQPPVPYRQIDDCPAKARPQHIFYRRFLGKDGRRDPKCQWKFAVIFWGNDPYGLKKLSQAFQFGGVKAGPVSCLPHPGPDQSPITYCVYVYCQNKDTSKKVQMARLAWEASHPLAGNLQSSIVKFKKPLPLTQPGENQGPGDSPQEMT
ALR H2O2 inh – inhibitors of human ALR sulfhydryl oxidase, primary screen, biochemical, H2O2 detection, HRP-luminol luminescence, single point; FAD-linked sulfhydryl oxidase ALR (Homo sapiens), P55789; inhibition, % (concentration not given with the values); purified ALR, DTT oxidation; 290,000 compounds, 3.8% hits;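 active means mean and each replicate at 75% or more; inconclusive means only one of the two met; inactive means neither met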;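 further: stock transfer was 7.5 nL into about 7.5 µL; 0% = neutral wells and 100% = wells with inactivated enzyme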
B2AR ag – beta2AR agonists driving receptor internalization, primary screen, cell-based, FAP fluorogen, flow cytometry | response, % (test concentration not listed) | 340,000 compounds, 0.43% hits | Am2.2-beta2AR cells; reference of the scale not given here | Beta-2 adrenergic receptor (Homo sapiens), P07550;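 active means response above a set limit, near 3 SD of response in nonfluorescent compounds, cut at about 42% in these data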;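 further: stock transfer was 100 nL into about 11 µL; a reference agonist was the positive control; negative values mostly stem from fluorescent compounds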
HNF4A DNA FP – change in binding of human HNF4A to DNA, primary screen, biochemical, fluorescence polarization, FITC-DNA. Hepatocyte nuclear factor 4-alpha (Homo sapiens), P41235. 1 h. activity change, % at 10 µM. 360,000 compounds, 0.3% hits; in the data active means activity change above about 30%, passing the limit was not always enough;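 further: controls were the assay level and a saturating level of protein; the project sought stronger binding though the title names inhibitors; some compounds called inactive have numbers as strong as hits; positive values seem to mean higher polarization but the record does not say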
An asterisk follows results filed as active.

Results for O=C(C/C=N\OCc1c(Cl)cccc1Cl)Oc1ccc(Cl)cc1Cl ?
Vif TR-FRET: 5.7%; RanGTP-Impb inh: 6.4; Calb FLC: 13.8; LANA-H2B inh: -2.0; ALR H2O2 inh: -1.3; B2AR ag: -6.5; HNF4A DNA FP: -1.5

Results for Cc1ccccc1NC(=O)c1ccc(C)c(S(=O)(=O)Nc2cccnc2)c1 ?
Vif TR-FRET: 1.5%; RanGTP-Impb inh: 1.9; Calb FLC: 0.8; LANA-H2B inh: 0.7; ALR H2O2 inh: -12.4; B2AR ag: 5.0; HNF4A DNA FP: 2.7

Results for Cc1[nH]nc2c1C(c1cccc(OC(=O)N3CCOCC3)c1)C(C#N)=C(N)O2 (centres undefined) ?
Vif TR-FRET: 6.8%; RanGTP-Impb inh: -0.4; Calb FLC: 0.8; LANA-H2B inh: 7.4; ALR H2O2 inh: 13.4; B2AR ag: -4.3; HNF4A DNA FP: 0.9

What do the screens show for `O=C(COC(=O)CNC(=O)c1ccc(Cl)c([N+](=O)[O-])c1)NC(=O)c1ccccc1`?
Vif TR-FRET: -5.3%; RanGTP-Impb inh: 2.1; Calb FLC: 7.3; LANA-H2B inh: 1.3; ALR H2O2 inh: -12.4; B2AR ag: -5.5; HNF4A DNA FP: 5.9

How did O=C(NCc1cccs1)c1cc(-c2ccccc2)on1 do in these assays?
Vif TR-FRET: -2.4%; RanGTP-Impb inh: 0.8; Calb FLC: -8.2; LANA-H2B inh: -2.7; ALR H2O2 inh: -1.6; B2AR ag: -0.3; HNF4A DNA FP: -0.6

How did CCC(CC)N1CCN(S(=O)(=O)c2ccc(OC)cc2)CC1 do in these assays?
RanGTP-Impb inh: 0.8; Calb FLC: -5.5; LANA-H2B inh: 0.9; ALR H2O2 inh: -4.5; B2AR ag: 2.2; HNF4A DNA FP: 2.4

What do the screens show for `O=C(O)c1ccc(S(=O)(=O)NC2CC2)cc1`?
RanGTP-Impb inh: inconclusive; Calb FLC: 3.3; LANA-H2B inh: -0.8; ALR H2O2 inh: -0.2; B2AR ag: -1.6; HNF4A DNA FP: 3.3

What do the screens show for `O=c1cc(CSc2n[nH]c(-c3ccncc3)n2)nc2sccn12`?
Vif TR-FRET: 8.2%; RanGTP-Impb inh: -0.1; Calb FLC: 16.8; LANA-H2B inh: 2.8; ALR H2O2 inh: -23.8; B2AR ag: -4.8; HNF4A DNA FP: -13.0

Results for COc1cc(O)c(/C=N/NC(=O)c2ccncc2)c(OC)c1[N+](=O)[O-] ?
Vif TR-FRET: inconclusive; RanGTP-Impb inh: 7.6; Calb FLC: 3.6; LANA-H2B inh: -4.0; ALR H2O2 inh: -3.4; B2AR ag: 1.6; HNF4A DNA FP: -2.7

Results for COC(=O)C1=CO[C@@H](O)C2C(CO)=CCC12 (some centres undefined) ?
LANA-H2B inh: 0.0; ALR H2O2 inh: 2.1; B2AR ag: 0.9; HNF4A DNA FP: -0.9

How did CC(C)CC(=O)N1CCN(C(=O)CCC2CCCC2)CC1 do in these assays?
Vif TR-FRET: 1.7%; Calb FLC: -6.3; LANA-H2B inh: 2.2; ALR H2O2 inh: -1.9; B2AR ag: 5.4; HNF4A DNA FP: 1.4

Results for C/C(=N\NC(=O)CCn1nc(C)cc1C)C(C)(C)C ?
RanGTP-Impb inh: -2.8; Calb FLC: -7.0; LANA-H2B inh: -3.0; ALR H2O2 inh: 0.5; B2AR ag: 0.7; HNF4A DNA FP: -4.0

Results for CC1(C)c2ccccc2N2CCC(=O)NC21/C=C/c1ccco1 (centres undefined) ?
Vif TR-FRET: inconclusive; RanGTP-Impb inh: -7.3; Calb FLC: -14.5; LANA-H2B inh: -1.7; ALR H2O2 inh: 3.1; B2AR ag: 4.2; HNF4A DNA FP: 15.0

What do the screens show for `C/C=C\C=C/C(=O)Nc1cccc(C2=NOC3(C2)C[C@@H](C(N)=O)N(C(=O)C2(C)CC2)C3)c1` (some centres undefined)?
Vif TR-FRET: -0.1%; RanGTP-Impb inh: -0.2; Calb FLC: -3.7; LANA-H2B inh: -2.6; ALR H2O2 inh: -2.4; B2AR ag: 4.9; HNF4A DNA FP: -0.2

How did Cc1ccc(S(=O)(=O)N(CC(=O)NCCC2=CCCCC2)Cc2ccccc2F)cc1 do in these assays?
Vif TR-FRET: 83.8%; RanGTP-Impb inh: -1.3; Calb FLC: -11.0; LANA-H2B inh: 1.6; ALR H2O2 inh: -14.5; B2AR ag: -3.9; HNF4A DNA FP: -0.7

What do the screens show for `Cc1cc(C)c(NC(=O)C2CC(=O)N(Cc3ccccc3)C2)c(C)c1` (centres undefined)?
Vif TR-FRET: -4.3%; RanGTP-Impb inh: -3.6; Calb FLC: inconclusive; LANA-H2B inh: 0.0; ALR H2O2 inh: -4.8; B2AR ag: 3.6; HNF4A DNA FP: 1.4

Results for CN(C)c1ccc(/C=N/N=C2/SC(CC(=O)O)C(=O)N2c2ccc(O)cc2)cc1 (centres undefined) ?
Vif TR-FRET: -5.1%; RanGTP-Impb inh: -0.7; Calb FLC: -5.5; LANA-H2B inh: 1.2; ALR H2O2 inh: 97.3*; B2AR ag: 6.1; HNF4A DNA FP: 4.9

What do the screens show for `NC(=O)c1ccsc1NC(=O)COC(=O)c1ccccc1F`?
LANA-H2B inh: 1.1; ALR H2O2 inh: 39.6; B2AR ag: 1.1; HNF4A DNA FP: 3.4

Results for CCOC(=O)C1CCCN(C(=O)CNC(=O)Cn2ccc3ccccc3c2=O)C1 (centres undefined) ?
Vif TR-FRET: -4.2%; LANA-H2B inh: 0.5; ALR H2O2 inh: 1.8; B2AR ag: 4.8; HNF4A DNA FP: 0.1

What do the screens show for `Cc1ccc(C(=O)N2CC(C)OC(C)C2)c(Cl)c1` (centres undefined)?
Vif TR-FRET: -0.5%; RanGTP-Impb inh: 4.6; Calb FLC: -1.8; LANA-H2B inh: -5.2; ALR H2O2 inh: -20.0; B2AR ag: 4.6; HNF4A DNA FP: -1.4

Results for CCC(=O)Nc1cccc(NC(=O)c2ccc3c(c2)OCO3)c1 ?
Vif TR-FRET: 0.6%; RanGTP-Impb inh: inconclusive; Calb FLC: -6.0; LANA-H2B inh: -0.2; ALR H2O2 inh: -9.9; B2AR ag: -3.7; HNF4A DNA FP: 3.4

Results for CN1C(=O)CC(N2CCN(C(=O)CN3CCCC3)CC2)C1=O (centres undefined) ?
Vif TR-FRET: -0.7%; RanGTP-Impb inh: -6.2; Calb FLC: -14.6; LANA-H2B inh: 0.9; ALR H2O2 inh: -30.3; B2AR ag: 3.5; HNF4A DNA FP: 1.1

How did CCNC(=O)c1ccc2c(c1)C1C3CCC(C3)C1C(c1ccccc1)N2 (centres undefined) do in these assays?
Vif TR-FRET: -2.8%; RanGTP-Impb inh: -0.4; Calb FLC: 18.9; LANA-H2B inh: 4.1; ALR H2O2 inh: 2.2; B2AR ag: -21.0; HNF4A DNA FP: 0.4

Results for O=C1NC(=S)NC1=Cc1ccc(Cl)cc1Cl ?
Vif TR-FRET: 5.2%; B2AR ag: 3.4; HNF4A DNA FP: 3.5

How did C=CCOc1ccc(C(=O)Nc2ccccc2C(=O)NCc2cccnc2)cc1 do in these assays?
RanGTP-Impb inh: 3.3; Calb FLC: 5.9; LANA-H2B inh: 0.0; ALR H2O2 inh: 0.8; B2AR ag: -29.1; HNF4A DNA FP: 1.0

What do the screens show for `CCCCC(=O)Nc1ccc(C(=O)Nc2nc(CC(=O)OCC)cs2)cc1`?
Vif TR-FRET: -11.4%; RanGTP-Impb inh: inconclusive; Calb FLC: 0.3; LANA-H2B inh: -1.8; ALR H2O2 inh: 0.8; B2AR ag: 5.4; HNF4A DNA FP: 0.0

What do the screens show for `Clc1ccc(Sc2ccc(/C=N/n3cnnc3)o2)cc1`?
Vif TR-FRET: 9.1%; RanGTP-Impb inh: 2.9; Calb FLC: 15.1; LANA-H2B inh: -3.6; ALR H2O2 inh: 1.5; B2AR ag: 5.8; HNF4A DNA FP: -0.1

Results for Cn1c(C(=O)OCC(=O)NCc2cccs2)cc2sccc21 ?
Vif TR-FRET: 7.1%; RanGTP-Impb inh: -0.3; Calb FLC: 6.1; LANA-H2B inh: -3.4; ALR H2O2 inh: -1.5; B2AR ag: -14.5; HNF4A DNA FP: -3.4

Results for CCN(CC(=O)Nc1ccc(NC(C)=O)cc1)C(=O)CC1OC(=O)c2ccccc21 (centres undefined) ?
Vif TR-FRET: 2.1%; RanGTP-Impb inh: -5.3; Calb FLC: 4.4; LANA-H2B inh: -2.3; ALR H2O2 inh: -1.0; B2AR ag: -3.6; HNF4A DNA FP: 5.0

What do the screens show for `CCn1cc(-c2nnnn2-c2ccc(Cl)cc2)c(=O)c2ccccc21`?
Vif TR-FRET: -3.2%; RanGTP-Impb inh: -13.8; Calb FLC: -15.8; LANA-H2B inh: 2.2; B2AR ag: -9.0; HNF4A DNA FP: 2.7

How did CNc1cc(N2CCCCCC2)ccc1[N+](=O)[O-] do in these assays?
Vif TR-FRET: 3.4%; RanGTP-Impb inh: inconclusive; Calb FLC: 17.3; LANA-H2B inh: 1.5; ALR H2O2 inh: -12.3; B2AR ag: 1.1; HNF4A DNA FP: -1.8

Results for Cc1cc(C)c2c(CN3CCC(C)CC3)cc(=O)oc2c1 ?
RanGTP-Impb inh: -1.4; Calb FLC: 2.9; LANA-H2B inh: 2.2; ALR H2O2 inh: -8.7; B2AR ag: -4.3; HNF4A DNA FP: -0.6

How did COc1ccc(-n2ccnc2SCC(=O)NCc2ccc(F)cc2)c(OC)c1 do in these assays?
Vif TR-FRET: 13.0%; RanGTP-Impb inh: -2.3; Calb FLC: 16.8; LANA-H2B inh: inactive; ALR H2O2 inh: -3.1; B2AR ag: 8.3; HNF4A DNA FP: 2.0

Results for CN1CCc2nc(NC(=O)c3cccc(OC(F)F)c3)sc2C1 ?
Vif TR-FRET: -1.5%; RanGTP-Impb inh: 19.2*; LANA-H2B inh: 1.6; ALR H2O2 inh: 8.9; B2AR ag: -1.8; HNF4A DNA FP: 48.5*

How did COc1cccc(-c2cc3nc4c(c(NCC(C)(C)CN(C)C)n3n2)CCCC4)c1 do in these assays?
Vif TR-FRET: 10.5%; RanGTP-Impb inh: 1.8; Calb FLC: -2.7; LANA-H2B inh: -2.9; ALR H2O2 inh: 0.0; B2AR ag: 0.2; HNF4A DNA FP: 7.3

What do the screens show for `CCn1cc(CNC(=O)CC2C(=O)NCCN2CC(c2ccccc2)c2ccccc2)cn1` (centres undefined)?
Vif TR-FRET: 8.8%; RanGTP-Impb inh: 5.2; Calb FLC: -3.5; LANA-H2B inh: 3.1; ALR H2O2 inh: -13.7; B2AR ag: -2.6; HNF4A DNA FP: -5.4

What do the screens show for `Cc1ccc(COc2ccsc2C(=O)NN)cc1`?
Vif TR-FRET: -9.9%; RanGTP-Impb inh: inconclusive; Calb FLC: -0.5; LANA-H2B inh: 1.7; ALR H2O2 inh: 61.6; B2AR ag: 17.5; HNF4A DNA FP: -0.2

How did CCn1nc(C)c(CNC(=O)c2cc(COc3ccc(C)nc3)on2)c1C do in these assays?
Vif TR-FRET: -2.5%; RanGTP-Impb inh: 0.1; Calb FLC: 1.7; LANA-H2B inh: -10.4; ALR H2O2 inh: -8.0; B2AR ag: -3.0; HNF4A DNA FP: 3.0

Assay outcomes as filed in PubChem BioAssay.
